# LANA-nucl inh – inhibitors of KSHV LANA binding to nucleosomes; AID 720717; FITC-LANA1-23 / chicken nucleosome fluorescence polarization; active compounds read low; z-score (no concentration beside the values); actives 0.3% (n = 51,000);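 active means both repeat wells score below -2 in polarization z-score versus plate sample wells, excluding overly bright wells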;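 further: 100 nL library stock added to about 30 µL; numbers are from one replicate; some results filed as inactive read as strong as hits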
#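 Test system: purified chicken nucleosomes with FITC-labelled LANA N-terminal peptide (1-23); Input: 240 nM purified chicken nucleosomes (480 nM peptide binding sites), final; Medium: TEN-BT buffer, pH 7.5; Timing: 10–45 min, room temperature; Technique: fluorescence polarization, 480 nm excitation, 535 nm parallel and perpendicular emission; Replication: duplicates.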
# Ab BasE inh – blocks the Acinetobacter baumannii siderophore enzyme BasE. AID 485350. inhibition, % (no concentration beside the values). actives 0.1% (n = 84,000). purified BasE, fluorescence polarization binding displacement;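 active means both replicates above 25% with normal brightness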;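 further: 0% = negative plate control signal and 100% = positive plate control signal; stock transfer was 100 nL into about 30 µL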
# * = called active by the depositor; nt = no result given; & = joins results of further samples.
SMILES,LANA-nucl inh,Ab BasE inh
CN1C(=O)CSc2ccc(NC(=O)NCc3ccccc3)cc21,-0.38,-0.7
Cc1c(OCC#N)ccc2c3c(c(=O)oc12)CCC3,0.76,0.3
CC(O)Cc1nnc(SCc2nnc(-c3ccccc3)o2)n1-c1ccccc1 (stereo not given),-0.64,2.0
Cc1nc(-c2cccs2)sc1C(=O)Nc1ccccc1,nt,-1.2
CC(CC(=O)N1CCN(c2ccc(F)cc2)CC1)CC1=NS(=O)(=O)c2ccccc2N1 (stereo not given),0.73,-1.3
Cc1onc(-c2ccccc2)c1NC(=O)Nc1ccc(OC(F)F)cc1,0.13,1.8
CCOc1ncccc1C(=O)OCc1ccc(Cl)cc1,nt,2.1
Cc1nc(SCC(=O)Nc2cccc(C(F)(F)F)c2)[nH]c(=O)c1C,0.55,0.0
Cc1sc(-c2cccs2)nc1O,-0.54,nt
CNC(=S)Nc1ccc(OC(F)(F)F)cc1,-1.1,-2.0
CCc1nnc(NC(=O)c2c(C)nn(-c3ccccc3)c2Cl)s1,nt,-0.4
CCCc1nc(NCCc2cccs2)c2nnn(Cc3ccccc3Cl)c2n1,-1.6,2.6
CC1CCc2[nH]c3ccc(C(=O)NCCCN4CCCC4=O)cc3c2C1 (stereo not given),nt,-0.8
CCOC(=O)C1CCN(C(=O)C(Cc2ccccc2)NS(=O)(=O)c2ccc3c(c2)CCC(=O)N3)CC1 (stereo not given),0.8,1.2
COc1cccc(NC(=O)C2CCN(c3nn4c(=O)cc(C)nc4s3)CC2)c1,-1.3,-3.5
N#Cc1c(N)c(C(=O)c2ccccc2)n2ccccc12,-0.91,-1.0
Cc1ccc2nc3c(c(N)c2c1)CCCC3,-0.39,-2.7
COCCn1cnnc1SCC(=O)NC(=O)C1CCCCC1,nt,0.1
CN(C)CCCNc1c(N)c(=O)oc2ccccc12,-0.074,8.3
N#CCOC(=O)c1cc2c(s1)CCCCC2,nt,0.7
COc1cccc(C2C(=O)N(C3CCC(C)CC3)CC(=O)N2CCc2ccccc2)c1OC (stereo not given),0.29,-2.3
CCn1c(C2COc3ccccc3O2)n[nH]c1=S (stereo not given),-1.1,2.5
CSc1sc(=S)sc1SC,nt,0.4
NC(=O)c1oc2ccccc2c1NC(=O)C1CC(=O)N(c2ccc(F)cc2)C1 (stereo not given),-1.2,-0.8
O=C(O)COCC1CCCO1 (stereo not given),-1.3,2.8
c1ccc(-c2noc(NC3CCCC3)n2)cc1,0.023,1.0
CCCc1n[nH]c2c1/C(=N\OCC)CC(C)(C)C2,0.73,0.8
CC(CN(C)Cc1ccccc1)OC(=O)c1cccc(F)c1 (stereo not given),nt,3.0
Cc1nc2sccn2c(=O)c1S(=O)(=O)N1CCc2ccccc2C1,-0.85,-0.5
CCCC(c1nnnn1CCC(C)C)N1CCC(C(N)=O)CC1 (stereo not given),0.33,-2.4
O=C(CCc1ccccc1)N/N=C/c1cccc(O)c1,-0.15,4.6
O=C1c2ccccc2C(=O)N1CSc1ccccc1,nt,2.3
O/N=c1/sc2ccccc2n1CCS,-0.55,0.9
CC(=O)Nc1ccc(N/C=C/C(=O)c2ccco2)cc1,1.9,-0.1
Nc1c(C(=O)NCc2cccs2)c2nc3ccccc3nc2n1-c1ccc2c(c1)OCO2,-1.3,1.1
O=S(=O)(/N=S1/CCC2(C1)OCCO2)c1cc(C(F)(F)F)cc(C(F)(F)F)c1 (stereo not given),nt,-1.9
Cc1ccc(CC(=O)NC2CCSC2=O)cc1 (stereo not given),-0.95,-0.3
CCC(C(=O)Nc1ccccc1OC)n1c(C(=O)OC)cc2sccc21 (stereo not given),2.4,-0.4
CCOC(=O)C(C)(C)Oc1ccc(Cl)cc1,-0.46&-0.021&0.37,0.6
CCOc1ccc(NC(=O)CSc2nnc3ccccn23)cc1,nt,4.1

# Part of the list above, set out differently:
# Each structure is followed by: LANA-nucl inh | Ab BasE inh
- O=C(O)COCC1CCCO1 (stereo not given)
→ -1.3 | 2.8
- c1ccc(-c2noc(NC3CCCC3)n2)cc1
→ 0.023 | 1.0
- CCCc1n[nH]c2c1/C(=N\OCC)CC(C)(C)C2
→ 0.73 | 0.8

# (further entries)
SMILES,LANA-nucl inh,Ab BasE inh
CN(CC(=O)NC1CC(C)(C)NC(C)(C)C1)S(=O)(=O)c1ccc(Br)cc1,-2.1,1.6
CCOC(=O)C1=C(N)Oc2cc(C)n(C)c(=O)c2C1c1ccncc1 (stereo not given),0.23,1.2
O=C(CN1CCC(N2CCCCC2)CC1)NC(c1ccccc1)c1ccccc1,-0.23,2.0
O=C(Cn1cnc(S(=O)(=O)N2CCc3ccccc32)c1)NCc1ccccc1,2.8,-0.9
CN1CCc2nc(SCC(=O)Nc3ccccc3OC(F)(F)F)c(C#N)cc2C1,nt,0.9
C=CCNC(=S)NC1C2CN3CCN(C2)CC1(C)C3 (stereo not given),-0.26,4.3
Cc1c(C(=O)N2CCN(C3CCS(=O)(=O)C3)CC2)oc2ccc(Cl)cc12 (stereo not given),nt,3.4
CCn1c(C)cc(O)c(C(c2ccc(OC)cc2)N2CCN(C)CC2)c1=O (stereo not given),2.5,-0.5
C/C(=N\NS(C)(=O)=O)c1ccc(C)cc1,0.47,2.4
O=c1c(-c2ccc(OC3O[C@H](CO)[C@@H](O)[C@H](O)[C@H]3O)cc2)coc2cc(O)cc(O)c12 (stereo not given in full),nt,-1.0
O=c1cc(CSc2ccccc2)nc2sccn12,-0.28,-2.1
O=C(CSc1nc2c(sc(=S)n2Cc2ccco2)c(=O)n1-c1ccccc1)c1ccc(O)c(O)c1,-0.22,1.7
Cc1nc(Cc2nnc(SCC(=O)c3ccc4c(c3)CCCN4S(C)(=O)=O)o2)cs1,nt,0.8
Nc1nsc2ccccc12,nt,0.1
COc1ccccc1Nc1nc(NCC2CCCO2)c2ccccc2n1 (stereo not given),2.4,-0.7
N#Cc1ccc(OCC(=O)N/N=C/C2CC=CCC2)cc1 (stereo not given),nt,-3.2
COc1cc2c(cc1OC)CN(C(=O)CCOc1ccccc1OC)CC2,nt,0.3
O=C(Cn1nnc(-c2ccccc2)n1)c1ccc(S(=O)(=O)N2CCCCC2)cc1,nt,-7.3
Cc1ccc(C(=O)CSc2nnnn2C2CCCC2)cc1C,-0.2,1.6
Cc1csc(SCC(=O)c2cc(C)n(-c3ccccc3)c2C)n1,nt,2.4
COc1cccc(NC(=O)N2CCC(N(C)Cc3cccc(Cl)c3)CC2)c1,-0.19,-3.4
FC(F)(F)c1cc(C(F)(F)F)c(Br)c(-n2cccc2)c1Br,nt,6.7
O=C(CN(c1ccccn1)S(=O)(=O)c1ccccc1)N=Nc1c(O)[nH]c2ccccc12,-0.2,1.5
Cn1c(C(=O)NCCc2ccccc2)cc(=O)n(C)c1=O,-0.55,1.0
C=CCOC(=O)C1=C(C)N2CCSC2=C(C#N)C1c1ccco1 (stereo not given),nt,2.7
CC(C)Cn1c(=O)n(C)c(=O)c2cc(C(=O)c3cc(Cl)cc(Cl)c3O)cnc21,nt,0.7
O=C(O)c1ccc(Oc2ccc(Cl)c(F)c2)cc1,-0.22,nt
O=C(NCC(c1cccs1)N1CCOCC1)c1ccccc1C(=O)NCC(c1cccs1)N1CCOCC1 (stereo not given),nt,0.9
Cc1occc(=O)c1OC(=O)c1ccco1,nt,-4.3
O=C(CCCn1ncn2c(cc3occc32)c1=O)NC1CCCc2ccccc21 (stereo not given),-0.24,1.3
Cc1nnc(SCC(=O)Nc2ccc(F)cc2)o1,-0.51,-0.8
C=CCNCC1OCc2ccccc2CO1,-0.041,0.3
Fc1ccccc1CSC1=NCCN1,2.4,-4.6
O=c1cc(O)c2sc(SCc3ccncc3)nc2[nH]1,-0.87,nt
COc1cc(OC)cc(-c2nnc(SCC(=O)N3CCc4ccccc43)o2)c1,0.43,2.6
CCn1cc(C(=O)N2CCOCC2)c(=O)c2cc(S(=O)(=O)N(C)C)ccc21,0.49,0.6
CCN(CC)S(=O)(=O)c1ccc(NC(=O)Nc2ccc(F)cc2)cc1,0.15,-1.9
CCN1CCCC1CNc1nc2ccc(C(=O)c3ccccc3)cc2n2cnnc12 (stereo not given),nt,-3.4
CC1CN=C(N(CCc2ccccc2)C(=O)Nc2ccc(Cl)cc2)S1 (stereo not given),nt,0.6
O=C(CCc1nc(-c2ccccc2)no1)OCc1c(Cl)cccc1Cl,nt,0.4

C=CCn1c(SCC)nc(O)cc1=O
  LANA-nucl inh = 0.53
  Ab BasE inh = 1.6

COc1cc(OC)cc(-c2nnc(SCc3cccc(S(=O)(=O)N(C)C)c3)o2)c1
  LANA-nucl inh = nt
  Ab BasE inh = -2.0

O=C(CN1CCN(Cc2ccccc2)CC1)N/N=C\c1ccccc1
  LANA-nucl inh = -0.24
  Ab BasE inh = 3.8

CN(Cc1c(F)cccc1Cl)C(=O)COc1ncnc2ccccc12
  LANA-nucl inh = nt
  Ab BasE inh = -0.3

CCCNC(=O)c1ccc(C(=O)NCCC)cc1
  LANA-nucl inh = 0.67
  Ab BasE inh = 0.0

O=C(CC1SC(=Nc2ccc(OC(F)F)cc2)N(CCN2CCOCC2)C1=O)Nc1ccc(F)cc1F (stereo not given)
  LANA-nucl inh = nt
  Ab BasE inh = 2.6

COc1cc2c(cc1OC)C(c1cccnc1)N(C(C)=O)CC2 (stereo not given)
  LANA-nucl inh = 0.22
  Ab BasE inh = 3.9

CN1CCN(C(=S)C(=O)Nc2ccccc2)CC1
  LANA-nucl inh = 0.49
  Ab BasE inh = 0.6

O=C(O)Cc1cncc(Br)c1
  LANA-nucl inh = nt
  Ab BasE inh = -0.4

CC1(C)CC(=O)C=C(Nc2ccc(O)cc2)C1
  LANA-nucl inh = 0.23
  Ab BasE inh = 1.8

CSC(=S)NNC1=NCCC1
  LANA-nucl inh = -0.91
  Ab BasE inh = 1.7

Oc1cc(O)c2c(c1)O[C@H](c1ccc(O)c(O)c1)[C@@H](O)C2
  LANA-nucl inh = -0.84&1.1
  Ab BasE inh = 12&1.2

CC(C)Cc1ccc(C(=O)O)cc1
  LANA-nucl inh = nt
  Ab BasE inh = -1.7

CCOC(=O)C1CCCN(CC(O)COC(c2ccccc2)c2ccccc2)C1 (stereo not given)
  LANA-nucl inh = nt
  Ab BasE inh = 1.5

O=c1[nH]cnc2c1c(-c1ccccc1)cn2-c1ccccc1
  LANA-nucl inh = -0.005
  Ab BasE inh = 0.3

# Reprinted from the part before: 3 compounds, followed by the next part.
CC(C)Cc1ccc(C(=O)O)cc1
  LANA-nucl inh = nt
  Ab BasE inh = -1.7

CCOC(=O)C1CCCN(CC(O)COC(c2ccccc2)c2ccccc2)C1 (stereo not given)
  LANA-nucl inh = nt
  Ab BasE inh = 1.5

O=c1[nH]cnc2c1c(-c1ccccc1)cn2-c1ccccc1
  LANA-nucl inh = -0.005
  Ab BasE inh = 0.3

S=c1nc(-c2ccccc2)n(CC2CCCO2)c2c1CCCC2 (stereo not given)
  LANA-nucl inh = 0.89
  Ab BasE inh = 1.8

Cc1cc(NC(=O)c2ccc(N3C(=O)CCC3=O)cc2)nc2c1c(=O)oc1ccccc12
  LANA-nucl inh = 0.17
  Ab BasE inh = 2.7

CC(NC(=O)c1ccco1)C1CCCO1 (stereo not given)
  LANA-nucl inh = 1.4
  Ab BasE inh = -2.3

CS(=O)(=O)Nc1ccccc1C(=O)Nc1ccc2c(c1)OCCO2
  LANA-nucl inh = -1.2
  Ab BasE inh = 2.6

O=C(NCc1ccccc1Cl)C1CCCN(c2nc3ccccc3o2)C1 (stereo not given)
  LANA-nucl inh = -0.89
  Ab BasE inh = 0.4

CN1CCc2c(OCC(=O)N3CCCc4ccccc43)cccc2C1=O
  LANA-nucl inh = -0.76
  Ab BasE inh = -0.5

CC(=O)Nc1ccc(CSc2ccccc2)cc1
  LANA-nucl inh = 0.1
  Ab BasE inh = 3.5

C=CCn1c(=O)c2ccc(C(=O)NCc3ccc4c(c3)OCO4)cc2n(CC(=O)Nc2cc(C)[nH]n2)c1=O
  LANA-nucl inh = -0.39
  Ab BasE inh = -1.4

CCOC(=O)COc1ccc(C#N)cc1
  LANA-nucl inh = 0.99
  Ab BasE inh = -1.6

COC(=O)c1cnc(Cl)cc1Cl
  LANA-nucl inh = 0.58
  Ab BasE inh = nt

CN(Cc1ccccc1)C(=O)c1cc(-c2ccco2)[nH]n1
  LANA-nucl inh = -1.2
  Ab BasE inh = -1.1

O=C(Nc1nc2nc(-c3cccs3)cc(C(F)(F)F)c2s1)c1ccco1
  LANA-nucl inh = nt
  Ab BasE inh = -1.5

# Sorted by molecular weight (falling): three of the compounds above.
Cc1nc(Cc2nnc(SCC(=O)c3ccc4c(c3)CCCN4S(C)(=O)=O)o2)cs1
  LANA-nucl inh = nt
  Ab BasE inh = 0.8

CN1C(=O)CSc2ccc(NC(=O)NCc3ccccc3)cc21
  LANA-nucl inh = -0.38
  Ab BasE inh = -0.7

CC(=O)Nc1ccc(N/C=C/C(=O)c2ccco2)cc1
  LANA-nucl inh = 1.9
  Ab BasE inh = -0.1

# Three entries already listed, ordered by the value under LANA-nucl inh, largest number first:
SMILES,LANA-nucl inh
CC(NC(=O)c1ccco1)C1CCCO1 (stereo not given),1.4
CN1CCc2c(OCC(=O)N3CCCc4ccccc43)cccc2C1=O,-0.76
CN(Cc1ccccc1)C(=O)c1cc(-c2ccco2)[nH]n1,-1.2

# Assay outcomes from PubChem.

# This is a subset; the hit share may differ from the screen's.
